Marburg entry inh: blocks Marburg virus binding to or entry into cells. 300,000 tested, 1.8% active. Marburg virus pseudotyped entry inhibition, cell reporter; control for the full effect not named in the record; about a third of the inactives were read at about 46 µM. Potency, µM (highest dose often 37.8 µM), inactives show at the top dose activity change, negative = inhibition, hits mostly inhibitors; active = well fitted inhibition curve with a large enough effect; inconclusive = small, poorly fitted or top-dose-only effect, or effect the other way; inactive = flat fitted curve, though single readings scatter; tested in HEK293 cells; about a fifth of its hits are not listed in these tables; note: % is set by controls: 0 for no effect and ±100 for the full control effect; luciferase read-out
2A StopGo: FMDV 2A StopGo reporter, luciferase signal. Potency, µM (series often up to 57.9 µM), for inactives: top-dose signal change, negative = less light. human cells with a luciferase reporter of 2A StopGo recoding; control for the full effect not named in the record. 410,000 tested, 1.2% active; active = well fitted falling curve with a large enough effect; inconclusive = small, poorly fitted or top-dose-only effect; inactive = no such curve, though single readings can be large or run the other way; tested in HEK293T cells; note: % is set by controls: 0 for no effect and ±100 for the full control effect; nearly all actives have a fitted effect of over 45% in size; luciferase light after 4 h
SARS PLP yeast: inhibitors of SARS-CoV papain-like protease in yeast. AID 485353. S. cerevisiae expressing SARS-CoV PLpro, growth rescue; control for the full effect not named in the record. 330,000 tested, 0.19% active. Potency, µM (highest dose often 32.9 µM), without a hit: top-dose activity, positive = growth rescue; note: 0% is about no effect; nearly all actives have a fitted effect of over 55% in size; growth read by luminescence after 48 h
RE007 growth inh: less growth of the S. pombe RE007 Vpr strain. S. pombe RE007 Vpr strain, BacTiter-Glo ATP luminescence, 24 h; control for the full effect not named in the record. Potency, µM (highest dose often 92.2 µM), without a hit: top-dose activity change, negative = less growth. 360,000 tested, 0.21% active. AID 651644; active = well fitted falling curve with a large enough effect; inconclusive = small, poorly fitted or top-dose-only effect; inactive = no such curve, though single readings can be large or run the other way;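 note: % is set by controls: 0 for no effect and ±100 for the full control effect; nearly all actives have a fitted effect of over 50% in size; the assay follows cell death caused by Vpr and the record does not say whether a fall means rescue or toxicity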
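Fission yeast strain RE007, carrying one chromosomally integrated HIV-1 vpr copy, was seeded at OD 0.01 in PMG+AL medium with 23 nL pinned compound. After 24 h at 30 °C and 99% humidity, viability was read by BacTiter-Glo luminescence.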
Cruzain inh Det: blocks cruzain activity in presence of Triton detergent. P25779. purified cruzain, Z-FR-AMC fluorescence, 0.01% Triton. 200,000 tested, 0.43% active. Potency, µM, for inactives: max response, negative = inhibition, hits mostly inhibitors; active = well fitted curve in the direction sought with a large enough effect; inconclusive = small, poorly fitted or top-dose-only effect, or another doubt; inactive = no such curve, though single readings can be large; an effect the other way counts as inactive or inconclusive;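 note: plate controls were neutral wells for no effect and buffer without enzyme for full effect; nearly all actives have a fitted effect of over 40% in size; top concentration of the series not given in the record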
Target sequence (P25779 123-467 limits assumed): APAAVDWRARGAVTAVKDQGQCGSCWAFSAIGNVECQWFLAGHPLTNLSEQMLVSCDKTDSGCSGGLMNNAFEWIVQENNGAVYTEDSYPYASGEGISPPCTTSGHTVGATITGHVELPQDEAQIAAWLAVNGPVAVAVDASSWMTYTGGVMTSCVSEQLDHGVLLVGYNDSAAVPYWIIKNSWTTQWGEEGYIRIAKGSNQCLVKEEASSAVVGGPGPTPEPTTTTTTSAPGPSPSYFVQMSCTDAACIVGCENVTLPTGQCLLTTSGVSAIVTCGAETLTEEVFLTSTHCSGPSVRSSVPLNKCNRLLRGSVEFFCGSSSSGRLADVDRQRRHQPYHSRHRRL
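Cysteine protease activity tested under reducing, mildly acidic conditions (100 mM sodium acetate pH 5.5, 5 mM DTT) plus 0.01% Triton X-100. Cruzain 1.5 nM; substrate Z-FR-AMC 2 uM; 15 min compound preincubation at room temperature.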
NS1 function inh: blocks influenza NS1 protein function | S. cerevisiae slowed by influenza A NS1, growth recovery by OD600 | Potency, µM (top dose mostly 46.1 µM), inactives show at the highest dose activity, positive = more growth | 270,000 tested, 0.4% active; note: actives are rising curves; nearly all actives have a fitted effect of over 50% in size
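Growth recovery, yeast-based: influenza A NS1 expressed in S. cerevisiae causes slow growth, and suppressors are detected by OD600. The parent strain without NS1 is used as positive control.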
LASV entry inh: blocks Lassa virus binding to or entry into cells. Lassa virus pseudotype entry inhibition, cell reporter; control for the full effect not named in the record. AID 540256. Potency, µM (titrated, usually from 37.9 µM), for inactives: at the highest dose activity change, negative = inhibition, usual class: inhibitors. 300,000 tested, 1.2% active; active means well fitted inhibition curve with a large enough effect; inconclusive means small, poorly fitted or top-dose-only effect, or effect the other way; inactive means flat fitted curve, though single readings scatter; tested in HEK293 cells; note: % is set by controls: 0 for no effect and ±100 for the full control effect; nearly all actives have a fitted effect of over 50% in size; luciferase read-out
Cruzain inh noDet: blocks cruzain activity in detergent-free assay | P25779 | purified cruzain, Z-FR-AMC fluorescence, no detergent | Potency, µM, inactives show max response, negative = inhibition, most hits filed as inhibitors | 200,000 tested, 2.3% active; active = well fitted curve in the direction sought with a large enough effect; inconclusive = small, poorly fitted or top-dose-only effect, or another doubt; inactive = no such curve, though single readings can be large; an effect the other way counts as inactive or inconclusive;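 note: plate controls were enzyme without inhibitor for no effect and buffer without enzyme for full effect; nearly all actives have a fitted effect of over 40% in size; top concentration of the series not given in the record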
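Detergent-free condition (0.00005% Triton X-100) in acetate buffer pH 5.5 with DTT. 1.5 nM enzyme and compound were pre-mixed 15 min, then 2 uM Z-FR-AMC substrate added; reaction progress from fluorescence change between first and third reads (60 s).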
Numbers without * were called inactive; ? = inconclusive; · = not tested or not shown; & = joins results of further samples; [ ] = dose if it differs, or a comment. Unless noted, calls come from the whole dose curve; as a rule, active means well fitted rising curve with a large enough effect; inconclusive means small, poorly fitted or top-dose-only effect; inactive means no such curve, though single readings can be large or run the other way. Potency is the fitted concentration of half-maximal effect.

SMILES	Marburg entry inh	2A StopGo	SARS PLP yeast	RE007 growth inh	Cruzain inh Det	NS1 function inh	LASV entry inh	Cruzain inh noDet
O=C(Nc1ccccc1)Nc1ccc(NC(=O)c2ccccc2O)cc1	·	2%	1%	-1%	·	4%	·	·
Fc1cccc(CSc2nnc3c(n2)[nH]c2ccccc23)c1	·	-1%	-1%	-16%	·	-4%	·	·
CN1CCN(c2ccc([N+](=O)[O-])c(N3CCCCC3)c2)CC1	?	2%	0%	-9%	·	-1%	7%[46.1 µM]	·
COC(=O)c1cccc(N(C(=O)c2ccco2)C(C(=O)NC2CCCC2)c2ccco2)c1 (stereo unspecified)	1%[46.1 µM]	0%	2%	6%	-1.1%	-5%	14%	2%
CCOc1ccc(/C=C2/SC(=O)NC2=S)cc1	?	19%	-29%	4%	-5.6%	-33%	?	?
Cc1ccc(S(=O)(=O)Nc2nc3ccccc3nc2N2CCOCC2)cc1	-2%[46.1 µM]	35%[activator]	-9%	4%	·	·	2%[46.1 µM]	·
O=C(c1c[nH]c(C(=O)C(Cl)(Cl)Cl)c1)c1ccccc1Br	5%[46.1 µM]	?	-1%	14%	·	·	3%	·
CCc1ccc(NC(=O)C(=O)NCC(c2cccnc2)N2CCOCC2)cc1 (stereo unspecified)	·	-16%	·	·	-13%	·	?	?
CN(C)/C=N/c1nc2nccc(-c3ccc(F)cc3)n2n1	5%[46.1 µM]	10%	1%	-1%	·	·	-1%	·
CCCCC(=O)Nc1cccc(NC(=O)c2ccccc2Br)c1	9%	-3%	-4%	-25%	-0.3%	-13%	12%[14.3 µM]	-6%
CC(=O)c1cccc(NC(=O)/C(=C\c2cccnc2)NC(=O)c2ccccc2)c1	-6%[46.1 µM]	0%	1%	-17%	·	13%	-6%	·
CC(=O)NCc1ccc(S(=O)(=O)N/N=C/c2ccc(N(C)C)cc2)cc1	?	94%[activator]	-5%	-2%	-7.9%	-57%	5%	-10%
Cc1ccc(NC(=O)[C@H](C)NC(=O)C2CCN(C(=O)[C@H](CC(C)C)NC(=O)OC(C)(C)C)CC2)cc1	4%	3%	0%	1%	·	6%	·	·
O=C(Nc1cccc(NC(=O)c2ncn[nH]2)c1)c1cccc(Cl)c1	-13%	-4%	-2%	3%	·	·	-27%	·
CCn1c(CNC(=O)c2ccc(OC)cc2)nnc1SCC(=O)Nc1ccc(OC)cc1	3%[46.1 µM]	-4%	·	·	1.8%	·	3%[46.1 µM]	-4%
CCCn1c(SCC(=O)NCCc2ccccc2)nnc1-c1ccco1	-11%[46.1 µM]	13%	20%	26%	-1.1%	-2%	3%	7%
COC(=O)C(Cc1ccc(O)cc1)NC(=O)C12CC3CC(CC(C3)C1)C2 (stereo unspecified)	·	5%	-2%	-6%	·	2%	·	·
Cc1nnc(SCC(=O)Nc2sccc2C#N)n1Cc1ccccc1	?	21%	·	10%	-0.7%	8%	3%	-10%
CN(C)S(=O)(=O)N1CCN(C(=O)c2cccs2)CC1	3%	·	4%	-6%	-1.4%	8%	9%	2%
O=c1c(/C=C(\O)c2ccc(F)cc2)nc2ccccc2n1-c1ccccc1	15%	10%	12%	-16%	-3.6%	9%	10%	-27%
O=C(NC1CCCc2ccccc21)c1cncc(Br)c1 (stereo unspecified)	7%	0%	-21%	4%	4.8%	-23%	3%	-3%
COc1ccc(OCc2cc(C(=O)NCC(C)Oc3cccnc3)no2)c(Cl)c1 (stereo unspecified)	?	22%	-7%	1%	·	-49%	?	·
CCC1=NN(C(=O)c2ccc(Cl)cc2)C(O)(c2ccc(C)cc2)C1 (stereo unspecified)	-8%[46.1 µM]	-7%	-6%	-22%	·	5%	-14%[46.1 µM]	·
Cc1ccc(C(=O)C2COC(=O)C2)cc1 (stereo unspecified)	-11%	-20%	0%	-18%	-7.7%	5%	-20%	-7%
CCOC(=O)NC(NCC(O)c1ccccc1)(C(F)(F)F)C(F)(F)F (stereo unspecified)	-5%	11%	0%	8%	-1.6%	29%	-9%	-5%
Cn1ncc(Cl)c1C(=O)Nc1ccc2c(c1)OCO2	·	13%	3%	6%	·	2%	·	·
NC(=O)C1(N2CCCCC2)CCN(C(=O)NC2CCCCC2)CC1	-21%	5%	-2%	14%	2.7%	7%	-16%	-8%
CCN1CCN(CCNC(=O)c2ccc3nc(-c4cccc(C)c4)c(-c4cccc(C)c4)nc3c2)CC1	·	-19%	0%	6%	·	14%	·	·
S=C(NCC1CCCO1)N1CCN(c2nc(-c3ccc(Cl)cc3)cs2)CC1 (stereo unspecified)	?	16µM*	-3%	?	·	10%	?	·
Cn1ncc2c(=O)[nH]nnc21	9%	-12%	·	7%	·	·	0%	·
O=C(NC1CC1)c1ccc(-c2ccccc2)cc1	16%	50%[activator]	-9%	20%	·	·	17%	·
CCCN1CCC(=O)N([C@H](COc2ccccc2)Cc2ccccc2)CC1	·	-18%	6%	?	·	-4%	·	·
Cc1cc(C(=O)N2CCCC(N3CCN(c4cccc(C(F)(F)F)c4)CC3)C2)c(C)o1 (stereo unspecified)	·	-25%	14%	-1%	·	-4%	·	·
CCc1sc(C(=O)NCc2ccco2)cc1C	2%[46.1 µM]	22%	-11%	-7%	·	-3%	29%	·
Nc1cc(-c2ccccc2)ccc1O	-5%&-14%	39%[activator]	?	3%	-1.1%	22%&3%	0%	?
N#CCNc1ccc([N+](=O)[O-])cc1C#N	·	-13%	0%	-8%	·	3%	·	·
CCOCCCn1c(SCC(=O)NCc2ccco2)nc2c(sc3ccccc32)c1=O	?	-25%	6%	-15%[3.69 µM]	-3.4%	15%	-14%	-4%
C=CCN1CC(=O)N2C(c3ccccc3)c3[nH]c4ccccc4c3C[C@H]2C1=O (stereo partly specified)	·	14%	0%	-15%	·	7%	·	·
COc1ccc(OC)c(CN2C(=O)c3ccccc3C2C(=O)NCc2cccnc2)c1 (stereo unspecified)	·	1%	2%	-6%	-5.8%	-1%	·	-4%
CN(CC(=O)Nn1cnnc1)S(=O)(=O)c1ccc(Br)cc1	0%	-8%	3.5µM*	-4%	1.8%	-46%	3%	3%

Two entries from above in another layout.
compound | Marburg entry inh | 2A StopGo | SARS PLP yeast | RE007 growth inh | Cruzain inh Det | NS1 function inh | LASV entry inh | Cruzain inh noDet
CCc1sc(C(=O)NCc2ccco2)cc1C | 2%[46.1 µM] | 22% | -11% | -7% | · | -3% | 29% | ·
Nc1cc(-c2ccccc2)ccc1O | -5%&-14% | 39%[activator] | ? | 3% | -1.1% | 22%&3% | 0% | ?

Further compounds follow:
SMILES	Marburg entry inh	2A StopGo	SARS PLP yeast	RE007 growth inh	Cruzain inh Det	NS1 function inh	LASV entry inh	Cruzain inh noDet
C[C@H](NS(=O)(=O)c1ccc2c(c1)OCCCO2)C(=O)N1CCN(Cc2ccccc2)CC1	-2%	-3%	-4%	-10%	·	·	-15%	·
CN(C(=O)COC(=O)/C=C/c1ccc2ccccc2n1)c1c(N)n(Cc2ccccc2)c(=O)[nH]c1=O	?	?	3%	18%	·	·	?	·
CC(=O)OCC1OC(Sc2cccc3cccnc23)C(OC(C)=O)C(OC(C)=O)C1OC(C)=O (stereo unspecified)	2%	-18%	1%	7%	-4.7%	-8%	12%	?
CCOC(=O)C(NC(=O)CC)(Nc1cc(C)on1)C(F)(F)F (stereo unspecified)	?	-1%	2%	12%	-1.7%	-2%	17%	1%
CCc1nnc(NC(=O)C2CCCCC2)s1	-3%&13%	28%	1%	-8%	3.8%	-12%	17%	-1%
CC(C)(C)C(=O)NC(c1ccccc1)c1c(O)ccc2ccccc12 (stereo unspecified)	·	-41%	0%	3%	·	7%	·	·
C=C(C)[C@@H]1CC=C(CN2CCC(N3CCC(C(=O)N4CCCC4)CC3)CC2)CC1	?	?	-4%	3%	·	-6%	?	·
CCOC(=O)CCc1c(C)nc2cc(-c3cc(OC)cc(OC)c3)[nH]n2c1=O	5%[46.1 µM]	-10%	·	·	-2.8%	·	21%[46.1 µM]	-2%
COc1ccccc1N1CCN(S(=O)(=O)c2cc(C(=O)Nc3ccc(Oc4ccccc4)cc3)ccc2F)CC1	·	?	·	·	0.5%	·	?	7.9µM*
S=c1[nH]nc(-c2ccc(Br)o2)n1Cc1ccccc1	16%	17%	-3%	-14%	-6.2%	-15%	2%	-6%
O=C(/C=C/c1cn(CC(O)CN2CCCCCC2)c2ccccc12)c1ccccc1 (stereo unspecified)	?	-3%	·	·	-8.2%	·	-26%[46.1 µM]	?
O=C(CSc1nnnn1Cc1ccccc1)NCCc1ccccc1	-16%	-7%	1%	17%	0.7%	-3%	23%	-2%
O=C(CNC(=O)c1nc[nH]c1C(=O)NCC(=O)OCc1ccccc1)OCc1ccccc1	·	?	3%	-9%	·	13%	·	·
COc1ccc([N+](=O)[O-])cc1NC(=O)/C=C/C(=O)O	3%	-9%	17%	21%	-4.2%	18%	2%	-3%
CC(=O)c1cc2c(cc1NC(=O)c1cnn(-c3ccc(C)cc3)c1-n1cccc1)OCO2	·	-11%	·	·	-3.3%	·	3%[46.1 µM]	-12%
CCOc1ccc(N(CC)C(=O)Cc2c(C(=O)O)n(C)c3ccccc23)cc1	-1%	-19%	0%	16%	·	7%	2%	·
Cc1cccc(N2C(=O)NC(=O)/C(=C\c3cnc(-c4ccccc4)nc3)C2=O)c1	?	-12%	-12%	1%	-1.3%	15%	18%	15%
CCOc1ccc(N(CC(=O)N2CCN(Cc3ccccc3)CC2)S(C)(=O)=O)cc1	·	-26%	5%	3%	·	0%	·	·
CC/C(CC(C)(C)c1ccccc1)=N\O	8%	-9%	-3%	3%	3.7%	5%	3%	1%
O=C(NCC1CCN(Cc2ccc(F)cc2)CC1)c1cc2ccc3cccnc3c2[nH]1	·	0%	·	·	-2.0%	·	?	-19%
Cc1ccc(/C=N/NC(=O)Cn2cnc3ccccc32)o1	-14%	13%	11%	14%	1.7%	-8%	4%	0%
COC(=O)c1scc(C)c1NC(=O)c1cccc(C#N)c1	·	-11%	0%	1%	·	-9%	·	·
O=C(O)CS(=O)(=O)CC(=O)O	?	15%	3%	23%	4.1%	-3%	-26%	2%

Screening results from PubChem BioAssay.
